Screening data as filed in PubChem BioAssay.
gsp ag – agonists of gsp mutant (McCune-Albright syndrome) | 340,000 compounds, 0.13% hits | Potency, µM (doses to about 76.9 µM), for the others: at the top dose activation (cAMP increase), hits mostly activators | gsp mutant cells, cAMP HTRF, 30 min; control for the full effect not named in the record; active = well fitted activation curve with a large enough effect; inconclusive = small, poorly fitted or top-dose-only effect, or another doubt; inactive = no such curve, though single readings can be large or run the other way; cell line not stated here;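 further: phosphodiesterase inhibitor Ro 20-1724 added with compounds to block cAMP breakdown; potency means the concentration at half of the fitted maximal effect; nearly all actives have a fitted effect of over 60% in size; about a fifth of the inactives were tested at one dose only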
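Cells stably selected in G418 were plated at 2000/well, grown 16-24 hr, then given compounds in DMSO with the PDE inhibitor […] (300 uM solution added) for 30 min at 37C; cAMP was read by HTRF.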
Menin-MLL FL inh – displaces fluorescein MLL peptide from human menin. AID 1766. FP activity change, % at 61.4 µM. Fluorescence polarization, fluorescein-MLL peptide displacement from menin. 290,000 tested, under 10 active; inconclusive = falling polarisation curve, or a change in total fluorescence; inactive = total fluorescence flat and polarisation flat or rising; no compound was filed as active; the % refers to the polarisation; negative = inhibition;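 further: % of control where 0% means no effect; inhibitors lower the polarisation; unlabelled MLL peptide was the positive control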
ClpP mod – qHTS Assay for Activators of ClpP | 340,000 compounds, 1.9% hits | purified B. subtilis ClpP, FRET peptide cleavage, 20 min | Potency, µM (highest dose often 57.5 µM), without a hit: at the top dose activity change, negative = active; active = well fitted falling curve with a large enough effect; inconclusive = small, poorly fitted or top-dose-only effect; inactive = no such curve, though single readings can be large or run the other way; further: potency means the concentration at half of the fitted maximal effect; the source files actives as falling curves though it sought activators and does not explain the sign; nearly all actives have a fitted effect of over 65% in size; many hits overshoot -100%
Target sequence (P80244 whole entry, looked up): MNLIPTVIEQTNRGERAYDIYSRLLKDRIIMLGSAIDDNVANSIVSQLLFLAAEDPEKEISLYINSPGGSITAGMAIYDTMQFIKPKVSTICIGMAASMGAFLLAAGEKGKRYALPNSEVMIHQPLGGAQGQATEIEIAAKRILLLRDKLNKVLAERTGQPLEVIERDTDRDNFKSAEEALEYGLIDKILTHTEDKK
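Buffer: 100 mM Tris/HCl pH8, 100 mM KCl, 0.05% low protease BSA, 2.5% glycerol, 0.01% Tween-20. ClpP 10 microg/mL final; 20 min RT; delta FRET normalized to ADEP and DMSO controls.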
D2 ag – agonists of human D2 dopamine receptor (beta-arrestin); 360,000 compounds, 0.084% hits; activation, % (no concentration beside the values); DiscoveRx PathHunter D2 beta-arrestin, luminescence, 90 min; 100% = 57 uM dopamine signal; in the data active = activation above about 40%; inconclusive = about 15% to 40%; inactive = below about 15%; further: compound concentration not given in the record; the text of the record calls up to 30% inactive
Target sequence (P14416 whole entry, looked up): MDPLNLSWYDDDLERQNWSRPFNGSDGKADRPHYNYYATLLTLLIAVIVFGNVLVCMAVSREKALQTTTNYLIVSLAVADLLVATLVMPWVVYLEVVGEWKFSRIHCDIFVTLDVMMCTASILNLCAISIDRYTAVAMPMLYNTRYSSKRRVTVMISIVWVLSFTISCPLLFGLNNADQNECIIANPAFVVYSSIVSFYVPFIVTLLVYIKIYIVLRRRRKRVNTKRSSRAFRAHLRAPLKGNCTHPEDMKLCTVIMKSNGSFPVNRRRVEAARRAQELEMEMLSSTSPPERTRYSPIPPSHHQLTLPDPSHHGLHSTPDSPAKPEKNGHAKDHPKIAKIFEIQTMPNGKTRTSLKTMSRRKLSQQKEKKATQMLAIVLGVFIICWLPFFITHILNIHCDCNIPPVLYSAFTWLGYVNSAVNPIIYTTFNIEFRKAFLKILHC
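DiscoveRx PathHunter D2 beta-arrestin cells (2,100/well) attached overnight, then compound-stimulated 90 min at 37 C in HBSS/10 mM HEPES/0.1% Tween-20 buffer; beta-galactosidase complementation read by luminescence after 1 h at ambient temperature. Dopamine 57 uM final (EC100) as control.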
Sfp inh – Sfp phosphopantetheinyl transferase inhibition; Q9F4F7; Biochemical Sfp PPTase activity, qHTS; Potency, µM, for inactives: max response, negative = inhibition, most hits filed as inhibitors; 310,000 compounds, 3.5% hits; active means well fitted inhibition curve with a large enough effect; inconclusive means small, poorly fitted or top-dose-only effect, or another doubt; inactive means no such curve, though single readings can be large or run the other way;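 further: the enzyme is Sfp with the accession as filed and its product quenches rhodamine fluorescence; potency means the concentration at half of the fitted maximal effect; 0% = enzyme reaction without inhibitor and -100% = no enzyme wells; top concentration of the series not given in the record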
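After 15 min at room temperature with compound, 15 nM Sfp received 5 uM rhodamine-CoA plus 12.5 uM BHQ-2-ybbR (50 mM Hepes pH 7.6, 10 mM MgCl2). Rate came from the fluorescence difference over 30 min, ex 525/em 598 nm.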
gsp antag – antagonizes gsp, the McCune-Albright syndrome mutation. 340,000 compounds, 0.4% hits. gsp-mutant cells, cAMP HTRF, 30 min; control for the full effect not named in the record. Potency, µM (doses to about 76.9 µM), inactives show top-dose activity change, negative = inhibition, actives largely listed as inhibitors; active = falling curve of any shape with a large fitted effect; inconclusive = falling curve, mostly with a smaller effect; inactive = flat or rising curve; cell line not stated here;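 further: intracellular cAMP measured with PDE inhibitor Ro 20-1724 present during compound exposure; potency means the concentration at half of the fitted maximal effect; on the % scale 0 is the no-effect control and ±100 the full control effect; nearly all actives have a fitted effect of over 65% in size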
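Cells in G418 medium, seeded 16-24 h, 37C; buffer exchange to DPBS + 1 mM CaCl2, 0.5 mM MgCl2, 0.05% BSA; cpds in DMSO + […] (300 uM stock), 30 min 37C; HTRF cAMP detection.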
PINK1 expr mod – changes PINK1 expression; 410,000 compounds, 0.2% hits; Potency, µM (top dose mostly 76.6 µM), inactives show top-dose activation (PINK1 increase), hits mostly activators; PINK1 immunofluorescence, high-content cytometry, 24 h; active = well fitted activation curve with a large enough effect; inconclusive = small, poorly fitted or top-dose-only effect; inactive = flat fitted curve, though single readings scatter; cell line not stated here;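 further: potency means the concentration at half of the fitted maximal effect; % of control where 0% means no effect; nearly all actives have a fitted effect of over 65% in size; a mitochondrial uncoupler was the plate control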
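Decision-based qHTS: stable cells, 24 h exposure to five compound concentrations, CCCP as control. Fixed cells stained for PINK1 plus nuclear, mitochondrial and cell markers, cytometer read.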
Starred values were filed as active, the others as inactive; ? = inconclusive; . = no result given; & = joins results of further samples; [ ] = remark or other dose.

SMILES	gsp ag	Menin-MLL FL inh	ClpP mod	D2 ag	Sfp inh	gsp antag	PINK1 expr mod
CN(CC(=O)NCc1ccccc1Cl)S(=O)(=O)c1cccs1	-30%[inhibitor]	-3.3	.	1.9	18%	11%	-2.0%
COc1ccc(CNc2ccc(C(=O)O)cc2)cc1	3%	-1.4	-0.6%	-2.6	6%	-1%	-2.4%
CC(=O)C(Cc1ccccc1)NC(=O)CN1CCN(Cc2ccccc2)CC1 (stereo unspecified)	-4%	0.2	.	-0.8	13%	-5%	0.2%
COc1ccc(N2CCN(C(=O)/C=C/[C@H]3O[C@@H](n4ccc(=O)[nH]c4=O)[C@H](O)[C@@H]3O)CC2)cc1	.	.	-1.8%	-3.1	.	.	0.5%
O=C(Nc1cccc(F)c1)Nc1nnc([C@@H]2O[C@H](CO)[C@@H](O)[C@H]2O)s1	.	.	1.6%	7.8	.	.	1.7%
CCC(C)Oc1nc(C)cc(C)c1S(=O)(=O)c1ccccc1C (stereo unspecified)	-33%[inhibitor]	3.4	?	-3.0	3%	-18%	12%
COc1ccc(N2CC(NS(=O)(=O)c3cccnc3)CC2=O)cc1OC (stereo unspecified)	-24%	.	1.0%	-8.4	.	-3%	-1.6%
O=C(c1ccc(OC2CCN(C(=O)C3CC3)CC2)cc1)N(CCO)Cc1ccccc1	13%	-2.1	-1.4%	-1.9	19%	-3%	-0.6%
O=C(CSc1nnc(-c2ccc(Br)cc2)n1CCc1ccccc1)NC1CCS(=O)(=O)C1 (stereo unspecified)	0%[15.4 µM]	5.6	.	-2.9	-1%	-1%	2.0%
Cn1c(N)c(C(=O)COC(=O)CNC(=O)c2ccc(Cl)cc2Cl)c(=O)n(C)c1=O	?	.	.	1.7	.	-2%	1.9%
COc1ccc2c(c1)-c1c(sn(-c3ccccc3)c1=S)C(C)(C)N2	-12%	5.2	-0.3%	4.1	-5%	-12%	10%
COC(=O)c1oc2ccc(Br)cc2c1NC(=O)CCCN1C(=O)c2ccccc2C1=O	-2%	1.3	-2.6%	-4.5	12%	6%	-0.3%
COc1cccc(Cn2nnc(C(=O)Nc3ccc(C)cc3)c2N)c1	-20%	-3.3	-11%	-1.8	22%	-8%	3.9%
Cc1cccc2cc(CN(CCN3CCOCC3)C(=O)Nc3ccccc3F)c(=O)[nH]c12	20%[15.4 µM]	-0.4	-1.6%	-6.5	-11%	-1%	1.6%
CC1(C)C2CCC1(C)C(OC(=O)CC(=O)O)C2 (stereo unspecified)	2%	-0.8	-0.1%	-1.4	15%	-5%	3.4%[38.3 µM]
COc1cc(C2=NOC(C(=O)N3CCCCCC3)C2)cc(OC)c1OC (stereo unspecified)	1%	-19	-5.1%	0.0	3%	5%	-2.0%[38.3 µM]
c1ccc(COc2nsnc2N2CCOCC2)cc1	1%	2.3	-0.8%	-1.8	28µM*	11%	6.2%
CON/C=C(\C=Nc1ccc(C(F)(F)F)cc1)c1ncc(C(F)(F)F)cc1Cl	-29%	3.0	-2.7%	0.2	20%	5%	-0.7%
Cc1ccc(N/C=C2/Sc3ccccc3NC2=O)cc1	-6%	1.5	1.6%	6.2	0%	-4%	40µM*
O=C(O)c1ccc(CSc2nnc(-c3cccnc3)n2-c2ccc(Br)cc2)cc1	-27%	-6.5	.	14	23%	-13%	-1.4%
CCOC(=O)CCc1c(C(=O)OCC)[nH]c(CC)c1C(=O)OCc1ccccc1	2%[15.4 µM]	6.4	0.3%	-6.8	13%	4%	12%
CCCCC(=O)NC(c1ccc(C(C)C)cc1)c1ccc2cccnc2c1O (stereo unspecified)	29%	-3.1	3.3%	-0.9	15%	-14%	12%
Cc1cc([N+](=O)[O-])nn1CCCC(=O)NC(C)c1ccccc1 (stereo unspecified)	14%[15.4 µM]	1.8	1.6%	-3.6	11%	5%	-0.4%
Cc1oncc1-c1csc(-c2ccccc2)n1	-13%	-4.8	-6.4%	-1.9	2%	-1%	2.3%
COC(=O)c1ccc(C(=O)OC)c(=O)[nH]1	11%	3.1	4.4%	-2.3	-23%	-9%	1.5%
CCC(C)(C)n1nnnc1C(c1cc2cc(C)ccc2[nH]c1=O)N1CCCc2ccccc21 (stereo unspecified)	-18%	1.0	-1.7%	-3.4	20µM*	3%	4.9%
CC(=O)N1CCC(=NNc2ccc(S(=O)(=O)N3CCOCC3)cc2[N+](=O)[O-])CC1	-4%	-3.0	1.2%	-2.6	0%	1%	0.8%
CCn1c(=O)c(=O)[nH]c2cc(C(=O)N(C)Cc3ccc(OC)c(F)c3)ccc21	-6%[15.4 µM]	0.1	.	1.4	19%	-3%	-1.3%
CN(C)C(CNC(=O)c1cccc(S(=O)(=O)N2CCc3ccccc3C2)c1)c1ccccc1 (stereo unspecified)	-30%	.	3.0%	-2.8	.	.	3.1%
O=C(Nc1ccccc1Br)C1CCN(C(=O)Cc2ccccc2)CC1	?	2.5	1.2%	0.2	-4%	-6%	2.4%
O=C(COc1ccc(Br)cc1)NCCCNC(=O)c1cnccn1	?	3.0	.	0.9	19%	9%	0.6%
Cc1ccc(NC(=O)/C(C#N)=C/c2cccs2)c(C)c1	4%	6.1	0.6%	-4.7	11%	-7%	14%
CC1(C)Nc2ccccc2N(CC(=O)N2CCCCC2)C1=O	3%	-0.6	-1.8%	-0.7	25%	4%	-3.2%
CCOC(=O)C(=O)NCc1ccc(/C=C2/N=C(C)C(C(=O)OCC)=C2O)o1	-4%[15.4 µM]	?	.	-0.7	22µM*	-17%	0.5%
CC(OC(=O)/C=C/c1ccccc1)C(=O)NC1CCCCC1C (stereo unspecified)	-28%	.	0.0%	-2.8	.	6%	3.3%
N#Cc1nc(-c2ccccc2F)oc1NCCc1ccccc1	-36%[inhibitor]	?	89%	1.0	-24%	7%	-4.0%[38.3 µM]
CC(C)CC1NC(=O)N(CC(=O)N2CCCc3ccccc32)C1=O (stereo unspecified)	-2%[15.4 µM]	-0.8	.	-0.8	1%	5%	1.5%
Cc1nn(C)cc1CNC(=O)C1(C)CC1(Cl)Cl (stereo unspecified)	-35%[inhibitor]	-0.8	4.5%	-2.4	2%	-9%	7.3%
C=Cc1ccc(C(=O)N2CCCC(Nc3ccc4c(c3)OCCO4)C2)cc1 (stereo unspecified)	-2%[15.4 µM]	-0.4	4.9%	0.3	3%	0%	0.5%
COc1ccc2c(c1)C(C1=C(O)CC(C)(C)CC1=O)C1=C(CC(C)(C)CC1=O)O2 (stereo unspecified)	-3%	0.6	1.3%	-3.1	8%	3%	2.5%[38.3 µM]
COC(=O)C1Cc2c([nH]c3ccccc23)CN1 (stereo unspecified)	-11%	1.3	32µM*	1.4	11%	16%	-0.3%
CC(=O)O/C(=C\c1cn(C(C)=O)c2ccccc12)C(=O)O	-3%	-0.2	-0.7%	-2.3	-15%	22%	-1.6%
CN(C)/C=C/C(=O)c1cc(F)cc(C(F)(F)F)c1	11%[15.4 µM]	0.4	.	-1.9	7%	2%	1.7%
COc1cccc(C(=O)NC(=S)Nc2ccccc2N2CCOCC2)c1	?	.	-0.5%	-0.9	7%	0%	4.5%
Cc1cc(NC(=O)c2ccco2)ccc1NC(=O)c1ccco1	14%[15.4 µM]	-2.6	-6.8%	2.1	14%	-18%	-0.1%
Cc1nn(CC(=O)NC2CC2)c(C)c1S(=O)(=O)NC(C)(C)C	-8%[15.4 µM]	.	0.3%	-5.9	.	8%	0.1%
Cc1ccc(S(=O)(=O)/N=C2\SC(CC(=O)Nc3ccc(F)cc3)C(=O)N2c2ccccc2)cc1 (stereo unspecified)	-45%[inhibitor]	1.6	0.8%	-1.6	-5%	-16%	0.2%
Cc1ccc(C(=O)OCC(=O)N2CCC(c3ccccc3)=N2)cc1	0%	.	.	3.0	.	-17%	3.8%
COc1ccc2c(c1)C(NC(=O)C(F)(F)F)CC2=O (stereo unspecified)	-11%	4.0	-0.2%	-1.1	15%	14%	.
CN(C)c1ccc(Nc2ccc([N+](=O)[O-])cn2)cc1	-72%[inhibitor]	3.3	.	-8.7	-1%	-14%	-0.6%

Reprinted at random: two entries already listed
SMILES	gsp ag	Menin-MLL FL inh	ClpP mod	D2 ag	Sfp inh	gsp antag	PINK1 expr mod
COC(=O)C1Cc2c([nH]c3ccccc23)CN1 (stereo unspecified)	-11%	1.3	32µM*	1.4	11%	16%	-0.3%
COc1cccc(C(=O)NC(=S)Nc2ccccc2N2CCOCC2)c1	?	.	-0.5%	-0.9	7%	0%	4.5%

Carrying on.
SMILES	gsp ag	Menin-MLL FL inh	ClpP mod	D2 ag	Sfp inh	gsp antag	PINK1 expr mod
COc1ccccc1C(=O)OCC(=O)NC(=O)NCc1ccccc1	-2%	-1.0	.	1.1	14%	13%	1.1%
COc1ccc(CCNC(=O)CSc2cn(Cc3cccc(C)c3)c3ccccc23)cc1OC	0%	1.3	3.1%	-1.9	-7%	-21%	-0.8%
COc1ccc(-c2cn3cc([N+](=O)[O-])ccc3n2)cc1OC	6%	1.5	1.5%	4.5	30%	-19%	3.2%
CCCN1CCN(S(=O)(=O)c2ccc3c(c2)CCC(=O)N3)CC1	10%	.	0.0%	0.3	.	11%	1.1%
CCSc1ccccc1C(=O)N1CCN(Cc2ccc3c(c2)OCO3)CC1	-24%	-5.8	-2.0%	-5.4	?	0%	-3.0%[38.3 µM]
CCC/C=C(\CCC)C(NC(=O)c1ccc(C(=O)OC)cc1)c1ccc(C(=O)OC)cc1 (stereo unspecified)	.	1.9	-4.1%	-2.1	27%	-2%	-0.6%
O=C(NC1CCCCCC1)c1ccc2nc3cc(Cl)ccc3c(=O)n2c1	0%[15.4 µM]	-1.6	25µM*	1.1	18%	2%	9.2%
CNC(=O)c1cc(S(=O)(=O)Nc2ccc3c(c2)OCO3)ccc1C	?	-1.2	0.8%	0.8	-4%	6%	-0.5%
O=c1cc(-c2ccccc2)[nH]c2ccccc12	?	1.7	-27%	-2.7	11%&-5%	18%	4.0%
O=[N+]([O-])c1ccccc1N/N=C1\CCc2ccccc21	-10%[15.4 µM]	-1.7	.	-5.0	10%	6%	1.0%
Nc1cc[n+](CC(=O)Nc2ccccc2)cc1	1%	0.7	.	2.3	12%	-15%	-1.6%
